StopGo reporter: lowers the luciferase signal of an FMDV 2A StopGo reporter; 410,000 tested, 1.2% active; human cells with a luciferase reporter of 2A StopGo recoding; control for the full effect not named in the record; Potency, µM (highest dose often 57.9 µM), without a hit: at the top dose signal change, negative = less light; active = well fitted falling curve with a large enough effect; inconclusive = small, poorly fitted or top-dose-only effect; inactive = no such curve, though single readings can be large or run the other way; tested in HEK293T cells; further: on the % scale 0 is the no-effect control and ±100 the full control effect; nearly all actives have a fitted effect of over 45% in size; luciferase light after 4 h
LASV entry inh: blocks Lassa virus binding to or entry into cells; AID 540256; Potency, µM (series often up to 37.9 µM), for inactives: at the top dose activity change, negative = inhibition, hits mostly inhibitors; Lassa virus pseudotype entry inhibition, cell reporter; control for the full effect not named in the record; 300,000 tested, 1.2% active; active means well fitted inhibition curve with a large enough effect; inconclusive means small, poorly fitted or top-dose-only effect, or effect the other way; inactive means flat fitted curve, though single readings scatter; tested in HEK293 cells; further: on the % scale 0 is the no-effect control and ±100 the full control effect; nearly all actives have a fitted effect of over 50% in size; luciferase read-out
Cruzain inh Det: blocks cruzain activity in presence of Triton detergent | P25779 | purified cruzain, Z-FR-AMC fluorescence, 0.01% Triton | Potency, µM, without a hit: max response, negative = inhibition, actives largely listed as inhibitors | 200,000 tested, 0.43% active | AID 1478;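 further: plate controls were neutral wells for no effect and buffer without enzyme for full effect; nearly all actives have a fitted effect of over 40% in size; top concentration of the series not given in the record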
Target sequence (P25779 123-467 limits assumed): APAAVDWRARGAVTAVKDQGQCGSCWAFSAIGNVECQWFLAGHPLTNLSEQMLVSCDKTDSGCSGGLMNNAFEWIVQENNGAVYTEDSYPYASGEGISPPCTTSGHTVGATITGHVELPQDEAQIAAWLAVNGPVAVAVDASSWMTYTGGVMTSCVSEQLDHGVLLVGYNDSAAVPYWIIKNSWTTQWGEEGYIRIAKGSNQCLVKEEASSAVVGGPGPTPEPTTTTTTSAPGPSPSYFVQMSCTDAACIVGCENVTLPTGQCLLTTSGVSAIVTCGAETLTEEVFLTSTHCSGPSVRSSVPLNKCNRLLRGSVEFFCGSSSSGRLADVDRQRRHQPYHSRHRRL
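Detergent-containing run (0.01% Triton X-100) in acetate buffer pH 5.5 with 5 mM DTT: enzyme at 1.5 nM final, 15 min compound preincubation at room temperature, then 2 uM Z-FR-AMC substrate. Activity taken as 60 s fluorescence increase at 360/450 nm.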
RE007 growth inh: less growth of the S. pombe RE007 Vpr strain; S. pombe RE007 Vpr strain, BacTiter-Glo ATP luminescence, 24 h; control for the full effect not named in the record; Potency, µM (doses to about 92.2 µM), for inactives: at the top dose activity change, negative = less growth; 360,000 tested, 0.21% active; active = well fitted falling curve with a large enough effect; inconclusive = small, poorly fitted or top-dose-only effect; inactive = no such curve, though single readings can be large or run the other way;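 further: on the % scale 0 is the no-effect control and ±100 the full control effect; nearly all actives have a fitted effect of over 50% in size; the assay follows cell death caused by Vpr and the record does not say whether a fall means rescue or toxicity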
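Fission yeast RE007 carrying one integrated HIV-1 vpr copy, seeded at OD 0.01 in PMG+AL medium with 23 nL pinned compound. Grown 24 h at 30 degrees; viability read by BacTiter-Glo luminescence after 5 min.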
NS1 inh: influenza NS1 inhibition; 270,000 tested, 0.4% active; AID 2326; Potency, µM (titrated, usually from 46.1 µM), inactives show at the highest dose activity, positive = more growth; S. cerevisiae slowed by influenza A NS1, growth recovery by OD600; active means well fitted rising curve with a large enough effect; inconclusive means small, poorly fitted or top-dose-only effect; inactive means no such curve, though single readings can be large or run the other way; further: nearly all actives have a fitted effect of over 50% in size
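Compounds were scored for reversing the slow growth caused by influenza A NS1 in S. cerevisiae, measured by optical density at 600 nm. Assay medium contained 2% galactose at pH 6.0; NS1-free yeast of the same strain were the positive control.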
SARS PLP yeast: blocks SARS-CoV papain-like protease in a yeast assay. S. cerevisiae expressing SARS-CoV PLpro, growth rescue; control for the full effect not named in the record. Potency, µM (top dose mostly 32.9 µM), inactives show at the top dose activity, positive = growth rescue. 330,000 tested, 0.19% active; active means well fitted rising curve with a large enough effect; inconclusive means small, poorly fitted or top-dose-only effect; inactive means no such curve, though single readings can be large or run the other way; further: 0% is about no effect; nearly all actives have a fitted effect of over 55% in size; growth read by luminescence after 48 h
Cruzain noTriton: blocks cruzain activity in detergent-free assay; AID 1476; purified cruzain, Z-FR-AMC fluorescence, no detergent; 200,000 tested, 2.3% active; P25779; Potency, µM, inactives show max response, negative = inhibition, hits mostly inhibitors;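 further: plate controls were enzyme without inhibitor for no effect and buffer without enzyme for full effect; nearly all actives have a fitted effect of over 40% in size; top concentration of the series not given in the record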
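Purified cruzain at 1.5 nM, pre-incubated 15 min with compound at room temperature in 100 mM sodium acetate pH 5.5, 5 mM DTT, 0.00005% Triton X-100. Reaction started with 2 uM Z-FR-AMC; AMC fluorescence increase over 60 s gives rate.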
MARV entry inh: Marburg virus entry inhibition | Marburg virus pseudotyped entry inhibition, cell reporter; control for the full effect not named in the record; about a third of the inactives were read at about 46 µM | Potency, µM (titrated, usually from 37.8 µM), without a hit: at the highest dose activity change, negative = inhibition, usual class: inhibitors | 300,000 tested, 1.8% active | AID 540276; active = well fitted inhibition curve with a large enough effect; inconclusive = small, poorly fitted or top-dose-only effect, or effect the other way; inactive = flat fitted curve, though single readings scatter; tested in HEK293 cells; about a fifth of its hits are not listed in these tables; further: on the % scale 0 is the no-effect control and ±100 the full control effect; luciferase read-out
Starred values were filed as active, the others as inactive; ? = inconclusive; · = no result given; & = joins results of further samples; [ ] = dose if it differs, or a comment. Unless noted, the call rests on the fitted dose curve; in most records, active means well fitted curve in the direction sought with a large enough effect; inconclusive means small, poorly fitted or top-dose-only effect, or another doubt; inactive means no such curve, though single readings can be large; an effect the other way counts as inactive or inconclusive. Potency means the concentration at half of the fitted maximal effect. The order is random; about 4.8% have a hit in one of these screens.

SMILES	StopGo reporter	LASV entry inh	Cruzain inh Det	RE007 growth inh	NS1 inh	SARS PLP yeast	Cruzain noTriton	MARV entry inh
O=C(c1cc2ncc(CCCl)cn2n1)N1CCCCCC1	3%	11%	-2.0%	6%	1%	26%	-1%	30%
O=C(Nc1c(Cl)cccc1Cl)c1cc(-c2cccc(O)c2)on1	-7%	-27%[46.1 µM]	-11%	·	·	·	-3%	?
Cc1ccc(N=c2c([N+](=O)[O-])nn(-c3ccc4c(c3)OCCO4)n2O)cc1F	?	-15%[46.1 µM]	·	11%	·	0%	·	?
CNC(=S)N1CCN(c2nc(-c3ccc(F)cc3)cs2)CC1	-18%	·	·	-22%	19%	-8%	·	·
Cn1c(NCc2c(O)ccc3ccccc23)nc2ccccc21	?	11%	-17%	1%	-7%	-27%	-10%	21µM*
CCNC(=O)/C(=C\c1ccc2c(c1)OCO2)NC(=O)c1ccc(Br)cc1	15%	0%	-5.0%	-1%	-8%	0%	0%	7%
CC(CCc1ccccc1)NC(=O)COC(=O)c1cccc(N(C)C)c1 (stereo not given)	-3%	·	·	3%	-35%	-2%	·	·
Cc1oc(-c2ccc(Cl)cc2)nc1CS(=O)CC(=O)NC(C)c1ccccc1 (stereo not given)	2%	·	·	-1%	13%	0%	·	·
CN(C)c1ccc(NC(=O)C2C3C=CC(C3)C2C(=O)O)cc1 (stereo not given)	0%	·	·	-18%	8%	0%	·	·
COc1ccc(N2CCN(c3nc(-c4cccs4)nc4ccccc34)CC2)cc1	?	2%	·	-8%	·	-1%	·	?
C/C(=N\Nc1nc(C(=O)O)cs1)c1ccccc1	17%	5%	·	-4%	·	25%	·	?
CC(=O)Cc1nsc(NC(=O)c2ccc(-c3ccc(F)cc3)o2)n1	13%	-1%[46.1 µM]	·	3%	0%	0%	·	1%[46.1 µM]
O=C(COc1ccc(Cl)cc1)Nc1cccc(-c2ccc3nncn3n2)c1	-24%	6%[46.1 µM]	·	-2%	·	2%	·	?
CCOC(=O)Cc1nnc(NC(=O)C23CC4CC(CC(C4)C2)C3)s1	19%	-7%[46.1 µM]	·	-21%	5%	0%	·	22%[46.1 µM]
CCOC(=O)c1c(C)[nH]c(C(=O)CC(=O)OC)c1C	34%[activator]	·	·	0%	-1%	-1%	·	·
COc1ccc(-c2cc(C(F)(F)F)nc(-n3nc(C(F)(F)F)cc3C)n2)cc1	?	8%[46.1 µM]	-16%	·	·	·	5%	1%[46.1 µM]
COc1ccc(N(C(=O)c2ccco2)S(=O)(=O)c2ccccc2)cc1	36%[activator]	2%	-5.8%	16%	-2%	-7%	-1%	-3%
Cn1c(N2CCN(C(c3ccccc3)c3ccccc3)CC2)nc2ccccc21	?	?	·	2%	-52%	-9%	·	?
CC(=O)CC1=NC(C)(C)Cc2ccccc21	-4%	14%[46.1 µM]	·	-3%	·	0%	·	-1%[46.1 µM]
COc1ccc2[nH]c3c(c2c1)CCN1C(=O)C(CC(=O)NC(C)(C)C)C[C@H](C(=O)N2CCOCC2)[C@@]31CCC1CCCC1 (stereo not given in full)	6%	·	·	8%	·	11%	·	-2%
CCC(=O)N1CCN(c2nc(-c3ccccc3)c3c(c2C#N)CCCC3)CC1	?	?	-7.4%	23%	-3%	-25%	?	-20%
CCCCNC(=O)O[C@@H]1C[C@H]2CCCC(=O)N3CC[C@@H](C1)[C@@H]23	-6%	·	·	10%	-2%	-7%	·	·
CCc1cccc(C)c1NC(=O)c1ccc2c(c1)CCN2S(=O)(=O)c1ccc(Cl)cc1	0%	-1%[46.1 µM]	-1.9%	·	·	·	?	?
Cc1ccc(S(=O)(=O)N(C)Cc2nc(-c3ccc(Br)cc3)no2)cc1	?	·	-3.9%	-14%	-3%	9%	1%	·
CN(C)c1ccc(NC(=O)CN2CCC(O)(c3ccccc3)CC2)cc1	18%	-21%	·	0%	0%	0%	·	-5%[46.1 µM]
O=C(CN1CCN(C(=O)c2ccco2)CC1)Nc1cc(Cl)ccc1Cl	10%	-28%	-1.7%	8%	-10%	2%	3%	3%
Cc1ccc(C(=O)NCCc2nnc(SCC(=O)Nc3cccc(C(=O)O)c3)n2C)cc1	7%	-18%[46.1 µM]	·	16%	10%	-6%	·	10%[46.1 µM]
Cc1cccnc1NC(=O)CCNC(=O)c1ccc(Br)cc1	-20%	·	·	1%	11%	-3%	·	·
COc1ccc(N2CC(C(=O)N[C@@H](C)C(=O)NC3CCCC3)CC2=O)cc1 (stereo not given in full)	-18%	·	·	-4%	-6%	5%	·	·
O/N=C/c1cn(-c2ccccc2)nc1-c1ccccc1	4%	12%[46.1 µM]	·	-1%	-32%	-6%	·	?
CC1(C)Cc2c(C#N)c(N3CCN(C(=O)c4ccccc4)CC3)nc(Cc3ccccc3)c2CO1	-29%	2%	-13%	9%	-1%	-8%	3%	-27%
CCN(CC)CC(=O)Nc1ccc(-c2nc3cc(NC(=O)CN(CC)CC)ccc3o2)cc1	14%	11%	?	-11%	4%	14%	9%	0.71µM*
O=C(C=Cc1ccccc1)c1ccc([N+](=O)[O-])cc1	-1%	10%[46.1 µM]	·	-21%	·	·	·	-29%[46.1 µM]
C/C(CC1(O)C(=O)Nc2ccccc21)=N\O (stereo not given)	-15%	2%	1.9%	1%	-8%	4%	-5%	4%
COc1cc(NS(=O)(=O)c2ccc(C)c(C)c2)c(OC)cc1Cl	-2%	-26%	-2.9%	5%	-7%	-24%	-13%	?
CCc1ccc(C2c3[nH]c4ccccc4c3CCN2C(=O)CN2CCN(CC)CC2)cc1 (stereo not given)	-21%	?	·	2%	3%	-2%	·	13µM*
COC(=O)Nc1ccc(S(=O)(=O)N2CCCC(C(=O)O)C2)cc1 (stereo not given)	1%	5%[46.1 µM]	·	6%	1%	0%	·	-11%[46.1 µM]
CCNC(=O)C(=O)Nc1cc2c3c(c1)CCN3C(=O)CC2	6%	·	·	-17%	4%	0%	·	·
O=[N+]([O-])c1ccc(N2CCCCCC2)c([N+](=O)[O-])c1	-16%	-20%	-19%	-13%	-9%	-13%	-1%	-24%
O=C1c2[nH]nc(-c3ccccc3O)c2C(c2ccccc2F)N1Cc1ccco1 (stereo not given)	-21%	5.2µM*	-11%	7%	·	-10%	-8%	-1%
Cc1ccc(C)c(NC(c2ccccc2)c2nnc(-c3ccccc3F)o2)c1 (stereo not given)	11%	-1%[46.1 µM]	-1.9%	·	·	·	4%	1%[46.1 µM]
CC1CCC(NC(=O)C2(C)Cc3ccccc3C(=O)N2Cc2ccc(Cl)cc2)CC1 (stereo not given)	-14%	·	-2.9%	·	·	·	-15%	-14%[46.1 µM]
O=c1c2ccccc2ncn1CCOCCOc1ccc([N+](=O)[O-])cc1	-29%	·	·	14%	3%	0%	·	·
CCOC(=O)N1CCC(NC(=O)C2CCCN(S(=O)(=O)c3cccc4nsnc34)C2)CC1 (stereo not given)	-30%	26%	-0.9%	-2%	5%	-1%	?	-2%&-28%
CC(=O)NC1C(=O)SC1(C)C (stereo not given)	·	·	-3.0%	·	1%	3%	3%	·
Cc1nnc(SCc2ccc(CSc3nnc(C)c(=O)[nH]3)cc2)[nH]c1=O	-3%	14%	·	-8%	·	5%	·	-18%[46.1 µM]
O=[N+]([O-])c1[nH]cnc1/C=C/c1ccccc1	-1%	-3%	·	1%	0%	1%	·	-19%
CCNc1nc(NCc2ccccc2)nc(Oc2ccc(=O)[nH]n2)n1	8%	2%	0.1%	-12%	-1%	15%	-1%	16%
O=C(NCCc1ccccc1)C(=O)NCC(c1ccco1)S(=O)(=O)c1cccs1 (stereo not given)	-18%	-6%[46.1 µM]	1.1%	·	·	·	6%	·
CC(=O)N(C1=C(N2CCOCC2)C(=O)c2ccccc2C1=O)c1ccc(C(=O)O)cc1	?	·	·	-29%	0%	0%	·	·
CCOC(=O)c1nc(Nc2cc(Cl)ccc2OC)c2ccccc2n1	-13%	·	·	-8%	-4%	0%	·	·
CCOC(=O)c1ccccc1NC(=O)c1cc2c(s1)-c1c(C)cccc1OC2	-3%	·	3.4%	·	·	·	10%	?
COc1ccc(-c2cn3cccnc3n2)cc1	22%	-1%[46.1 µM]	·	-23%	·	-2%	·	?
CC(Oc1ccc(F)cc1)C(=O)Nc1nc(-c2ccc(F)cc2)ns1 (stereo not given)	-37%	2%[46.1 µM]	-6.7%	·	·	·	-3%	8%[46.1 µM]
CC(=O)OC1CCC2(C)C3CCC4(C)C(C(C)=O)CCC4C3CC3OC32C1 (stereo not given)	-17%	-1%[46.1 µM]	·	0%	·	·	·	4%[46.1 µM]
Cc1onc(-c2c(F)cccc2Cl)c1C(=O)NC(=S)NC1CCS(=O)(=O)C1 (stereo not given)	0%	-6%	-0.5%	3%	10%	1%	-2%	-9%
CCc1nnc(SC(CC)C(=O)Nc2cccc(OC)c2)c2cc3oc(C)cc3n12 (stereo not given)	-23%	-22%[46.1 µM]	-2.3%	·	·	·	12%	·
O=C(NCCCNc1ccc([N+](=O)[O-])cc1)C(F)(F)F	-10%	1%	-6.0%	-9%	13%	10%	3%	?
COc1cc(-c2nc(-c3ccc4c(c3)[nH]c(=O)n4C)no2)cc(OC)c1OC	-13%	-19%[46.1 µM]	1.4%	·	·	·	9%	·
COc1ccc2c(C)nc(N/C(N)=N/S(=O)(=O)c3ccc(C)cc3)nc2c1	34%[activator]	?	·	0%	4%	0%	·	?
CNC(=O)C(C)N1c2cccc3cccc(c23)S1(=O)=O (stereo not given)	-1%	·	·	0%	-2%	0%	·	·
O=c1[nH]n(CCO)c(=O)c2cccnc12	-9%	-8%	·	3%	5%	2%	·	1%
c1ccc2c(c1)C(=Nn1cnnc1)c1ccccc1-2	15%	?	-2.7%	6%	-36%	0%	10%	10%

High-throughput results from PubChem BioAssay.
